# Assay outcomes (PubChem)
# BJeLR viability: MLPCN primary cell-based screen for lethality selective to Ras in HRASV12 cells. AID 1554, 2009. inhibition, % (no concentration beside the values). hit rate 0.17% among 300,000. BJeLR (HRASV12) viability, CellTiter-Glo ATP luminescence, 48 h; reference of the scale not given here;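 active = replicate mean above 50%; inconclusive = above 50% but judged a plate artefact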;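 also: 50 nL library stock added to about 25 µL; numbers are from one replicate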
# Sa RN4220 lethal: growth inhibition of S. aureus RN4220, primary screen, OD600 | 16 h | inhibition, % (test concentration not listed) | hit rate 0.33% among 330,000;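 active = z-score of -3 or lower and OD600 up to 0.18 on both plates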;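 also: plate controls were untreated cells for no effect and reference antibiotic for full effect; stock transfer was 100 nL into about 80 µL; one replicate is shown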
# PrP 5UTR inh: inhibition of PrP 5' UTR reporter expression | cell-based PrP 5' UTR mRNA reporter, plate reader | inhibition, % (concentration not given with the values) | hit rate 0.35% among 340,000;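 active = every replicate at 50% or more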;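 also: 0 = median of the neutral control wells; tested in H4 reporter cells; numbers are from one replicate; inactives centre near -14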
# Mtb hypoxia rep: PubChem AID 1159583; hit rate 0.1% among 300,000; M. tuberculosis hypoxia-regulated fluorescent reporter, fluorescence; fluorescence inhibition, % (test concentration not listed);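 active = 35 to 45% if threefold the growth effect, above 45% if 1.5-fold the growth effect; inactive = the rest, general growth blockers included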;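 also: wells of about 50 µL received 100 nL stock; 0% = vehicle wells and 100% = reference inhibitor wells; whole bacteria with a GFP reporter of the hypoxia response; strong numbers were not always called active; many hits fall short of the cut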
# Autofluor counter: compound fluorescence in toxin protease inhibitor counterscreen | compound autofluorescence counterscreen, microsphere flow cytometry; hits give high values | fluorescence intensity (test concentration not listed) | hit rate 3.1% among 360,000;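 active = at least 3 SD above the mean of all compounds, about 16000 in these data; inconclusive = too few beads counted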;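 also: 100 nL of 1 mM stock went into each well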
# ugtP null kill: growth inhibition of ugtP-null S. aureus, primary screen, RN4220 ugtP deletion, OD600. 16 h; some inactives read as strong as hits. growth inhibition, % (test concentration not listed). hit rate 0.54% among 330,000. AID 1259309, 2017;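 active = z-score under -3 and OD600 up to 0.15 on both plates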;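 also: plate controls were untreated wells for no effect and antibiotic for full effect; wells of about 80 µL received 100 nL stock; the first replicate is given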
# Mtb hypoxia rep growth: recorded beside Mtb hypoxia rep, whose call it bears; growth inhibition, %; measured here: M. tuberculosis growth (absorbance);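 0% = vehicle and 100% = reference antibiotic; read after six days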
# Starred values were filed as active, the others as inactive; ? = inconclusive; / = not tested or not shown; & = joins results of further samples. This is a random part of the collection; about 4% have a hit in one of these screens.
canonical_smiles	PrP 5UTR inh	ugtP null kill	Mtb hypoxia rep	BJeLR viability	Autofluor counter	Mtb hypoxia rep growth	Sa RN4220 lethal
Cc1cc(CO)nn1-c1ccc([N+](=O)[O-])cc1	-8	-1	14	6	/	7	3.2
O=C(CN1c2ccccc2Sc2ccccc21)N/N=C/c1ccc(Cl)cc1Cl	-29	/	/	-3	4382	/	/
CC1CCN(c2ccc(NC(=O)Cn3c(=O)oc4ccccc43)cc2)CC1	4	4	-5	6	5153	9	-0.8
O=S(=O)(c1cccc2nsnc12)N1CCNCC1	-12	3	3	4	4022	4	1.9
CN(C(=S)NC(=O)c1ccccc1)c1c(N)n(Cc2ccccc2)c(=O)[nH]c1=O	-10	0	3	7	5852	1	-1.4
Cc1c(N2C(=O)CSC2=S)c(=O)n(-c2ccccc2)n1C	-17	5	-7	2	3784	7	2.9
O=C(COC(=O)c1cccnc1Cl)NCCc1ccccc1	-11	6	12	/	?	8	7.2
COc1ccc(C(=O)COC(=O)[C@H](C)Nc2ccc(C(F)(F)F)cc2[N+](=O)[O-])cc1	-13	6	/	4	3860	/	-2.2
O=C(NCc1csc(-c2cccs2)n1)C1CCCCC1	-65	14	15	6	4082	-2	2.4
COc1ccc(CCN2CC(C(=O)N3CCSCC3)CCC2=O)cc1 (configuration not stated)	-5	1	4	4	5935	6	-2.8
CN(CCNC(=O)c1cc2c(-c3ccccc3F)nn(C)c2s1)C1CCCCC1	-11	0	-10	3	4508	-1	-0.6
Cc1ccc(C)c(NC(=O)CSc2nnc(-c3ccccc3)n2N)c1	-18	4	/	2	2472	/	0.0
O=C(Nc1cc(Cl)cc(Cl)c1)Nc1cnccn1	-24	100*	2	-8	5347	0	100*
Cc1ccc(F)c(CNC(=O)C2CCC(=O)N(Cc3ccccn3)C2)c1F (configuration not stated)	-19	8	1	0	5708	11	5.1
COc1ccc(N2CCN(c3ncccn3)CC2)cc1	-25	25	11	-1	5131	-2	4.4
O=Nc1c(O)[nH]c2ccc(Cl)cc12	13	/	/	-4	2453	/	/
O=C(Cc1cccs1)NC(c1ccccc1)c1ccccc1	-12	9	10	9	5493	2	-1.6
Cc1ccc(NC(=O)CN2CCCC2c2cccn2C)cc1C (configuration not stated)	-12	12	15	/	3609	6	6.0
CC(C)(C)OC(=O)N1CC(O)CC1C(=O)OCC(=O)c1ccc(-c2ccccc2)cc1 (configuration not stated)	-15	-1	1	-10	4455	-3	11
COc1cccc(Cn2c(-c3nonc3N)nc3ccccc32)c1	-12	-3	/	50	2343	/	1.9

# Filtered by structure: the entries above containing an aryl methoxy group (four)
canonical_smiles	PrP 5UTR inh	ugtP null kill	Mtb hypoxia rep	BJeLR viability	Autofluor counter	Mtb hypoxia rep growth	Sa RN4220 lethal
COc1ccc(C(=O)COC(=O)[C@H](C)Nc2ccc(C(F)(F)F)cc2[N+](=O)[O-])cc1	-13	6	/	4	3860	/	-2.2
COc1ccc(CCN2CC(C(=O)N3CCSCC3)CCC2=O)cc1 (configuration not stated)	-5	1	4	4	5935	6	-2.8
COc1ccc(N2CCN(c3ncccn3)CC2)cc1	-25	25	11	-1	5131	-2	4.4
COc1cccc(Cn2c(-c3nonc3N)nc3ccccc32)c1	-12	-3	/	50	2343	/	1.9

# (next part)
canonical_smiles	PrP 5UTR inh	ugtP null kill	Mtb hypoxia rep	BJeLR viability	Autofluor counter	Mtb hypoxia rep growth	Sa RN4220 lethal
Cc1c(OCC(=O)NCCCn2ccnc2)ccc2c3c(c(=O)oc12)CCCC3	-23	/	/	5	5314	/	/
O=C(O)/C=C/C(=O)c1c(-c2ccccc2)[nH]c2ccccc12	-10	11	20	6	3720	24	4.5
COc1ccc(NC(=O)c2cccnc2N2CCOCC2)cc1	-26	11	21	-8	4229	7	6.4
CC(OC(=O)c1ccccc1C(=O)N(C)c1ccccc1)C(=O)Nc1ccccc1[N+](=O)[O-] (configuration not stated)	-19	5	6	-1	5246	-5	6.9
C=CCn1c(-c2cccn(Cc3ccccc3)c2=O)n[nH]c1=S	-22	1	2	2	21465*	8	1.7
COC(=O)c1ccc(C(=O)Nc2ccc3nc(-c4ccncc4)[nH]c3c2)cc1	-19	2	5	-1	3824	0	-11
COc1ccccc1NC(=O)COC(=O)c1cc2ccccc2cc1O	-9	3	-2	/	3692	-3	3.1
COCc1c(Br)c(C)nc(OCC(=O)N/N=C/c2ccco2)c1C#N	-1	/	/	-2	2079	/	/
Cc1cc2ncn(-c3ncnc4scc(-c5ccccc5)c34)c2cc1C	8	-7	0	2	24244*	1	15
O=C(NCC1CCCO1)c1cc2n(n1)C(C(F)(F)F)CC(c1ccc(Br)cc1)N2 (configuration not stated)	-3	-11	-1	2	20177*	10	2.9
O=C(N/N=C/c1ccc([N+](=O)[O-])o1)C1CCCC1	-13	/	/	5	6191	/	/
O=C(CS(=O)CC(=O)N(c1ccccc1)C(C(=O)NC1CCCCC1)c1ccco1)Nc1ccc(F)cc1 (configuration not stated)	-3	8	3	-10	2079	8	1.0
COc1cccc(NC(=O)C2CCN(S(=O)(=O)c3ccc4c(c3)NC(=O)CO4)CC2)c1	-6	-1	1	1	6401	6	2.2
CC(C)c1ccc(C2C(C(=O)c3ccco3)=C(O)C(=O)N2CCN2CCOCC2)cc1 (configuration not stated)	-6	5	6	-11	5710	-3	6.2
Cc1nn(C)cc1CNC(=O)C1CCC(=O)N(Cc2cccc(C(F)(F)F)c2)C1 (configuration not stated)	-11	3	5	0	7011	-7	2.6
O=C(CCCn1c(=S)[nH]c2cc3c(cc2c1=O)OCO3)NCc1ccco1	-12	4	0	-2	?	2	13
Cc1cccc(-c2nsc(SCC(=O)N3CCCC3)n2)c1	-72	-17	/	0	4232	/	4.8
COc1ccc(CNCc2cn(-c3cccc(F)c3)nc2-c2ccc(C)o2)cc1	-1	3	-5	1	7718	3	0.1
Cc1sc(NC(=O)CSc2nnc(C(C)C)n2C)c(C#N)c1C	-14	1	/	-1	3569	/	4.6
Cc1cc(Cl)ccc1OCC(=O)NN=C1CC2C=CCC12 (configuration not stated)	/	-8	15	/	/	-1	1.6
Cc1ccc(C)c(Cn2c(=O)n(CCC(=O)NCc3ccco3)c(=O)c3sccc32)c1	-19	3	5	-1	11582	6	1.3
O=C(NNC(=S)NCc1ccco1)c1cccs1	-25	4	5	0	2423	9	5.1
COc1ccc(Cn2c(=O)sc3ccccc32)cc1OC	6	5	5	8	15838	9	2.9
CC1(C)Cc2ccccc2-c2nnc(C(F)(F)F)n21	-15	-4	6	-3	2338	2	4.3
Nc1ncn([C@@H]2O[C@H](CO)[C@@H](O)[C@H]2O)c(=O)n1	15	/	/	7	5620	/	/
COCc1c(C(=O)N/N=C/c2ccncc2)nnn1-c1nonc1N	-21	/	/	-2	3459	/	/
O=[N+]([O-])c1ccc(NCCO)c2ncccc12	-8	5	0	-3	2423	2	3.7
CCOc1ccccc1NC(=O)CN1CCN(Cc2ccccc2)CC1	-17	8	15	2	4010	-5	1.4
C=CCc1ccccc1OCC(O)CN1CCN(c2ccccc2OC)CC1 (configuration not stated)	-47	-2	14	-5	10475&4078	11	3.0
O=C(Nc1ccc(-c2cn3c(n2)SCC3)cc1)c1ccco1	-33	11	13	-3	4400	-3	5.0
c1ccc(-n2nnnc2Sc2ncnc3sc4c(c23)CCCC4)cc1	-22	-2	2	5	1832	2	16
Cc1cccc(-c2n[nH]c(=S)n2N=Cc2ccc(C)o2)c1	/	3	6	/	/	7	13
CC(C)CNC(=O)C(=O)Nc1cc2c3c(c1)C(C)C(=O)N3CCC2 (configuration not stated)	-2	11	1	3	4027	-7	5.9
CCOc1ccc(N(CC(=O)NCc2ccccc2)C(=O)CCC(=O)Nc2nccs2)cc1	-18	5	2	-9	5716	-4	4.6
Cc1ccccc1NC(=S)N1CCN(c2ccccc2C)CC1	3	4	1	8	4430	8	2.9
CC1CCCCC12NC(=O)N(CC(=O)NCc1ccccc1Cl)C2=O (configuration not stated)	-26	4	5	/	3646	12	1.2
Cn1nc(N)c2c(-c3ccccc3)c(C#N)c(N)nc21	-12	/	/	-8	2086	/	/
Cc1nc2sccn2c(=O)c1S(=O)(=O)NCc1ccccc1Cl	-15	9	9	-1	6862	5	3.2
c1coc(-c2ccnc3nc(-n4cccc4)nn23)c1	-17	3	0	0	4058	1	6.1
CCCCNC(=O)CN(c1cccc(Br)c1)S(C)(=O)=O	-15	-3	/	6	2038	/	-5.1
COc1cccc(OC)c1OCCCCN1CCC(Cc2ccccc2)CC1	-14	0	13	/	4179	11	-1.2
COc1ccc2[nH]c3c(c2c1)CCN1C(=O)C(CC(=O)NCCCn2ccnc2)C[C@H](C(=O)N(C(C)C)C(C)C)[C@@]31C (some centres not stated)	-20	5	-6	/	3465	1	0.4
O=C(O)C1Cc2ccccc2-c2ccccc2C1	-3	-15	2	-2	3886	12	6.2
CN(C)CCCN(C(=O)c1ccc(Br)s1)c1nc2cc3c(cc2s1)OCO3	-9	7	13	3	6010	9	-6.0
CC(C)C(=O)NC(=O)C1CCCN1C(=O)C=Cc1ccccc1 (configuration not stated)	/	4	18	/	/	10	3.6
O=C(O)CCCCCNS(=O)(=O)c1ccc2c3c(cccc13)C(=O)N2	-35	3	7	-3	3495	-2	1.1
O=C(N1CCN(c2ccccc2)CC1)C1(c2cccs2)CCOCC1	-7	/	/	2	2133	/	/
O=C(CCNS(=O)(=O)c1ccc(OC(F)(F)F)cc1)N1CCN(C/C=C/c2ccccc2)CC1	-5	1	6	-7	5295	8	0.5
CN(C)c1ccc(NC(=O)CSc2nnc(-c3ccco3)c(-c3ccco3)n2)cc1	-36	9	-3	-5	5781	5	-9.7
COc1ccc(OC)c(C2C(C(=O)O)c3ccccc3C(=O)N2C)c1 (configuration not stated)	-17	0	/	-6	2638	/	1.2
COc1cccc(NC(=O)N2CCC(NC(=O)C3CCCCC3)CC2)c1	-18	5	3	-5	6015	4	1.5
COc1cccc(NC(=O)COC(=O)c2c(F)cccc2Cl)c1	-66	-1	10	-5	4671	11	1.0
O=C(c1cc(-c2ccc(F)cc2)on1)N1CCN(c2ccc(F)cc2)CC1	-22	5	14	4	3658	8	4.0
O=C(CSc1nc2cc([N+](=O)[O-])ccc2n1-c1ccc(F)cc1)NC1CCS(=O)(=O)C1 (configuration not stated)	-10	11	7	-3	10570	-2	2.5
Cc1cc(C(=O)COC(=O)c2ccc[nH]c2=O)c(C)n1C	-22	0	14	11	2318	4	4.7
O=C(Nc1nnc(CCc2ccccc2)s1)c1ccccc1	-19	0	20	6	3740	2	4.5
Cc1nc2ccccn2c1P(=O)(N1CCCCC1)N1CCCCC1	-16	8	4	0	6320	7	5.7
CC1CCCC(C)N1S(=O)(=O)c1ccc(S(=O)(=O)N2CCOCC2)cc1 (configuration not stated)	-25	2	8	11	4220	8	6.8
CNC(=O)c1ccsc1NC(=O)CS(=O)(=O)c1ccc(Cl)cc1	-14	1	-8	3	5545	-7	2.3
Cc1ccc(NS(=O)(=O)Cc2ccccc2)cc1Cl	-21	-1	-1	-6	3519	-3	0.4

# (continued)
canonical_smiles	PrP 5UTR inh	ugtP null kill	Mtb hypoxia rep	BJeLR viability	Autofluor counter	Mtb hypoxia rep growth	Sa RN4220 lethal
COC(=O)c1ccc(C)c(NC(=O)CN(c2ccc3c(c2)OCO3)S(C)(=O)=O)c1	-12	2	/	7	3675	/	4.8
CCc1nc2ccc(Cc3ccc4nc(CC)[nH]c4c3)cc2[nH]1	-8	0	-1	1	3711	8	1.1
OCCNc1nc(N2CCOCC2)nc(N2CCOCC2)n1	-5	3	-6	9	3299	1	4.6
CCOc1cc(S(=O)(=O)n2ccnc2)ccc1Br	-86	1	2	1	4662	-1	3.5
CCOc1ccc(/C=N/NC(=O)c2ccc(CSc3nc4ccccc4[nH]3)cc2)cc1	-9	/	/	-2	2230	/	/
Cn1cnnc1SCC(=O)Nc1cccc(C(=O)O)c1	-10	1	13	7	8625	6	3.0
